# Screening data: PubChem BioAssay, Southern Research Institute
# Mtb growth – Mycobacterium tuberculosis H37Rv growth inhibition, putative kinase inhibitor library, confirmatory dose response (AID 2842); actives 5.2% (n = 24,000); one-dose inhibition, % at 10 µg/mL; IC90 in µg/mL for titrated hits; M. tuberculosis H37Rv growth inhibition; higher % means a stronger effect; some inactives read as strong as hits;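 active = confirmed in a dose series; inconclusive = mostly over 85% at the one dose but not retested; inactive = below 85% or not confirmed; about a fifth of its hits are not listed in these tables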;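 also: bacteria incubated one week before Alamar blue readout; 0% = bacteria only wells and 100% = bacteria with high antibiotic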
# Numbers without * were called inactive; ? = inconclusive.
SMILES,Mtb growth
COc1ccc(OC)c2[nH]c(=O)c(CCNC(=O)c3ccccc3F)cc12,20%
Cc1nc(SCC(=O)c2ccc(Cl)s2)c2c3c(sc2n1)CCCC3,73%
Cc1nnc(SCC(=O)NCc2ccccc2Cl)[nH]c1=O,-11%
CCC(=O)Nc1c(C(=O)Nc2ccc(F)c(F)c2)oc2ccccc12,6%
Cc1ccc(C)c(NC(=O)CSc2ccc3nnc(-c4cccc(F)c4)n3n2)c1,1%
CC(C)Oc1ccc(C2/C(=C(\O)c3ccccc3)C(=O)C(=O)N2CCCn2ccnc2)cc1 (stereo not drawn),45%
COc1ccc(-n2ccnc(SCc3ccc(C)cc3)c2=O)cc1,-6%
CCC(CC)C(=O)N(C)c1nnc(C23CC4CC(CC(C4)C2)C3)s1,7%
COc1ccc(C(=O)N2CCN=C2SCc2cccnc2)c(OC)c1,-6%
COc1ccc(-n2c(=O)[nH]c3c(C(N)=O)nc(-c4ccncc4)nc32)cc1,1%
CCOC(=O)c1nn(-c2ccc(F)cc2)c(=O)c2c(NC(=O)CC(C)(C)C)scc12,2%
Cc1ccc(C(=O)Nc2nnc(-c3ccc(Cl)cc3Cl)s2)cc1,2%
O=C(Nc1nnc(-c2ccc(Br)cc2)s1)c1ccc2c(c1)OCO2,5%
Cc1ccc(Cc2nn3c(SCC(=O)c4ccc(C)cc4)nnc3[nH]c2=O)cc1,1%
Cc1ccc(C(=O)c2cn(CC(=O)Nc3ccc4c(c3)OCO4)c3ccccc3c2=O)cc1,1%
Cc1cccc(-n2ccn(CC(=O)NCc3ccccc3)c(=O)c2=O)c1C,-10%
O=c1oc2cc([N+](=O)[O-])ccc2c2ccc([N+](=O)[O-])cc12,0%
Cn1c(=O)c2c([nH]c(=S)n2Cc2ccc(F)cc2)n(C)c1=O,-6%
Cc1cccc(CSc2ncnc3nc[nH]c23)c1,37%
COc1cccc(C(=O)NCCc2cc3cc(C)c(C)cc3[nH]c2=O)c1OC,13%
Cc1ccc(-c2c(C)sc3ncn(CC(=O)NCc4ccco4)c(=O)c23)cc1C,15%
O=C(Cn1cc(C(=O)c2ccc(Cl)cc2)c(=O)c2cc3c(cc21)OCCO3)Nc1ccc2c(c1)OCCO2,-3%
COc1ccc(OC)c2[nH]c(=O)c(CCNC(=O)c3ccc(Cl)cc3Cl)cc12,8%
COc1ccccc1NC(=O)c1oc2ccccc2c1NC(=O)CCCl,11%
Cc1ccc(OCCn2c(CO)nc3ccccc32)c(C)c1,8%
COc1ccccc1-n1ncc2c(=O)[nH]c(SC(C)C)nc21,25%
N#Cc1ccc(C(=O)Nc2nnc(-c3ccc(Cl)cc3)o2)cc1,57µg/mL*
COCCCNc1c2c3c(cccc3[nH]c1=O)C(=O)c1ccccc1-2,36%
O=C(CCc1ccccc1)Nc1nnc(-c2cccc([N+](=O)[O-])c2)s1,3%
O=C(CSc1ncnc2c1oc1ccccc12)Nc1cccc(F)c1,5%
C=CCn1c(NCC)nc2c1c(=O)[nH]c(=O)n2C,-4%
O=C(CSc1ncnc2c1oc1ccccc12)Nc1nc2ccccc2s1,-6%
C=C(C)CSc1nc2c(c(=O)[nH]c(=O)n2C)n1Cc1cccc(C)c1,10%
CCN(CC)S(=O)(=O)c1ccc(C(=O)Nc2nnc(-c3ccccc3C)s2)cc1,-5%
O=C(Nc1nc(-c2ccc3c(c2)CCCC3)cs1)c1cccc(Cl)c1,8%
Cc1ccc(C(=O)COC(=O)c2cc3cc(Br)ccc3oc2=O)cc1,-1%
CC(C)c1ccc(-c2csc(NC(=O)c3cc(Cl)cc(Cl)c3)n2)cc1,13%
O=C(c1cccc([N+](=O)[O-])c1)N1CCCC(C(F)(F)F)C1 (stereo not drawn),9%
O=C(CCN1C(=O)c2ccccc2S1(=O)=O)Nc1nccs1,-8%
COc1ccc(Cc2nnc(NCCCN3CCOCC3)[nH]c2=O)cc1,-12%
O=C(Cc1cccs1)Nc1nnc(SCC(=O)N2CCCCCC2)s1,-2%
O=C(Nc1c(C(=O)Nc2ccccc2)oc2ccccc12)c1ccc(F)cc1,4%
O=C(Cn1cnc2scc(-c3ccccc3)c2c1=O)Nc1ccccc1,41%
Cc1ccc(C)c(NC(=O)CSc2ccc3nnc(-c4ccccc4)n3n2)c1,-9%
O=C(CC1CCS(=O)(=O)C1)Nc1ccc(Cl)c(C(F)(F)F)c1 (stereo not drawn),4%
CC(C)c1ccc(N2C(=O)C3N=NN(CC(=O)Nc4cccc(Cl)c4)C3C2=O)cc1 (stereo not drawn),-10%
CC1CCc2sc(NC(=O)C(C)C)c(C(N)=O)c2C1 (stereo not drawn),?
Cc1cc(C)cc(N2C(=O)C3N=NN(CC(=O)Nc4ccc(C)c(C)c4)C3C2=O)c1 (stereo not drawn),-16%
CC(=O)c1sc(NC(=S)NC(=O)c2sc3ccccc3c2Cl)nc1C,11%
CC(C)CCSc1nc2c(c(=O)[nH]c(=O)n2C)n1CCc1ccccc1,10%
# The list goes on.
SMILES,Mtb growth
CCCCOc1ccc(C(=O)Nc2cccc3c2C(=O)NC3=O)cc1,2%
COc1cccc(-c2nnc(NC(=O)c3ccccc3C)o2)c1,?
CC(C)(C)c1csc(Nc2nc3c(F)cccc3s2)n1,6.5µg/mL*
CCCc1cc(=O)[nH]c2nnc(SCC(N)=O)n12,9%
CC(=O)Nc1cccc(C2=CC(c3ccccc3Cl)n3ncnc3N2)c1 (stereo not drawn),-5%
O=C(CSc1nc2c(c(=O)n1-c1ccccc1)SCC2)Nc1cccc2ccccc12,-1%
O=c1[nH]cc(S(=O)(=O)N2CCN(c3cccc(C(F)(F)F)c3)CC2)c(=O)[nH]1,0%
Cc1ccc(C)c(-n2c(C)cn3c4c(=O)[nH]c(=O)n(C)c4nc23)c1,-3%
COc1ccc(Cl)cc1NC(=O)c1cnc2sccn2c1=O,-1%
Cc1sc(NC(=O)c2ccc(Br)s2)c(C(N)=O)c1C,-2%
COc1cccc2sc(Nc3ccccc3)nc12,0%
CCOc1cccc2cc(C(=O)NC(C)=O)c(=Nc3ccccc3)oc12,0%
COc1ccc(OC)c2[nH]c(=O)c(CCNC(=S)NC(C)(C)C)cc12,1%
CC(=O)C(C)n1c(=O)c2c(nc3n(-c4cccc(C)c4C)c(C)c(C)n23)n(C)c1=O (stereo not drawn),4%
CCOc1ccc2nc(N3CCN(c4nc5ccc(OCC)cc5s4)CC3)sc2c1,-2%
CCC(Sc1nncn1C)C(=O)Nc1nnc(-c2ccc(F)cc2)s1 (stereo not drawn),-3%
Cc1nn(C(=O)c2cccnc2)c(C)c1Sc1ccccc1[N+](=O)[O-],15%
Cc1nnc(SCc2cccc(F)c2)n(N)c1=O,12%
Cc1ccccc1C(=O)Nc1sc2c(c1C#N)CC(C)CC2 (stereo not drawn),4%
O=C1NC(=O)/C(=C\c2ccc(-c3cccc(Cl)c3Cl)o2)S1,3%

# Fetched by structure from above (seven):
SMILES,Mtb growth
O=C(CSc1nc2c(c(=O)n1-c1ccccc1)SCC2)Nc1cccc2ccccc12,-1%
Cc1cccc(-n2ccn(CC(=O)NCc3ccccc3)c(=O)c2=O)c1C,-10%
COc1ccc(OC)c2[nH]c(=O)c(CCNC(=S)NC(C)(C)C)cc12,1%
COc1ccccc1NC(=O)c1oc2ccccc2c1NC(=O)CCCl,11%
Cc1ccc(C)c(-n2c(C)cn3c4c(=O)[nH]c(=O)n(C)c4nc23)c1,-3%
Cc1nnc(SCc2cccc(F)c2)n(N)c1=O,12%
CC(C)CCSc1nc2c(c(=O)[nH]c(=O)n2C)n1CCc1ccccc1,10%

# Later entries.
SMILES,Mtb growth
O=C(Nc1nc(-c2ccc(I)cc2)cs1)c1ccc(N2C(=O)CCC2=O)cc1,15%
CCN1C(=O)c2cccc3c(NC(=O)c4ccc(Oc5ccccc5)cc4)ccc1c23,1%
C/C=C/CSc1nc2c(c(=O)n(C)c(=O)n2C)n1Cc1cccc(C)c1,13%
COc1ccc(NC(=O)/C=C/c2c(Cl)cccc2Cl)c(OC)c1,-6%
C/C=C/C(=O)Nc1c(C(=O)Nc2cc(OC)ccc2OC)oc2ccccc12,-5%
O=C(CSc1nnc2ccc(-c3ccncc3)nn12)NCc1ccccc1,-9%
Cc1nnc(NC(=O)CSc2nc3[nH]ncc3c(=O)[nH]2)s1,0%
COc1cc(C)c(Br)cc1S(=O)(=O)NCCN1CCOCC1,5%
Clc1ccc2oc(-c3ccccc3)cc(=Nc3nncs3)c2c1,10%
Cn1c(=O)[nH]c(=O)c2c1n1c(-c3ccccc3Cl)nnc1n2C,3%
COc1ccc(C(=O)C2C(c3ccc(-c4cccc(Cl)c4Cl)o3)NC(=O)NC2(O)C(F)(F)F)cc1 (stereo not drawn),66%
COc1ccc(OC)c(NC(=O)c2oc3ccccc3c2NC(=O)c2ccc(Cl)cc2Cl)c1,-8%
CC(=O)N1CCc2c(sc(NC(=O)c3cccc(F)c3)c2C(N)=O)C1,24%
O=C(CSc1ncnc2c1oc1ccccc12)Nc1cccc(Cl)c1,98%
Cc1cc(NC(=O)c2ccc3c(c2)OCO3)nc2c1c(=O)oc1ccccc12,2%
Cc1ccc2nc(NC(=O)CSc3cn(Cc4ccc(Br)cc4)c4ccccc34)sc2c1,0%
CC1=C(C(=O)Nc2cccc(Cl)c2)C(c2ccccc2F)NC(=O)N1 (stereo not drawn),2%
O=C(Nc1nnc(-c2ccc(Cl)cc2Cl)s1)C1CC1,11%
Nc1nc(NCCO)nc(Nc2cccc(F)c2)c1[N+](=O)[O-],2%
CCOC(=O)N1CCc2c(sc(NC(=O)c3ccc4ncsc4c3)c2-c2nc3ccccc3s2)C1,16%

# Rewritten as tab-separated lines: part of the list above.
molecule	Mtb growth
Cc1cc(NC(=O)c2ccc3c(c2)OCO3)nc2c1c(=O)oc1ccccc12	2%
Cc1ccc2nc(NC(=O)CSc3cn(Cc4ccc(Br)cc4)c4ccccc34)sc2c1	0%
CC1=C(C(=O)Nc2cccc(Cl)c2)C(c2ccccc2F)NC(=O)N1 (stereo not drawn)	2%
O=C(Nc1nnc(-c2ccc(Cl)cc2Cl)s1)C1CC1	11%
Nc1nc(NCCO)nc(Nc2cccc(F)c2)c1[N+](=O)[O-]	2%
CCOC(=O)N1CCc2c(sc(NC(=O)c3ccc4ncsc4c3)c2-c2nc3ccccc3s2)C1	16%

# Next section.
SMILES,Mtb growth
O=C(Cn1cnc2ccccc2c1=O)N=Nc1c(O)[nH]c2ccccc12,9%
O=C(NCCOC(=O)c1ccc([N+](=O)[O-])cc1)c1cccnc1,28%
CCS(=O)(=O)c1ccccc1C(=O)Nc1nc(-c2cccc3ccccc23)cs1,15%
O=C(CCN1C(=O)c2ccccc2S1(=O)=O)Nc1ccc(F)c(F)c1F,15%
COc1ccccc1NC(=O)c1cnc(SCC(=O)Nc2nc3ccccc3s2)n(C)c1=O,-18%
O=C(Nc1nnc(-c2ccccc2)s1)c1ccc(-c2ccccc2)cc1,0%
CCOc1ccccc1N/C=C(\C#N)c1nc2ccccc2[nH]1,8%
CCOc1ccccc1NC(=O)CSc1ncnc2ccccc12,8%
O=C(Nc1ccc(F)c(C(F)(F)F)c1)c1cnc2sccn2c1=O,8%
Cc1ccc(S(=O)(=O)N(C)CCCC(=O)Nc2cccc(C)c2C)cc1,7%
COc1ccc(-c2nnc3c4ccccc4n(Cc4ccc(Cl)cc4)cc2-3)cc1OC,22%
CCS(=O)(=O)c1ccccc1C(=O)Nc1sc2c(c1C(N)=O)CCCCC2,-15%
C=CCSc1nc2c(c(=O)[nH]c(=O)n2C)n1Cc1ccc(C)cc1,12%
O=C(CSc1nc2[nH]ncc2c(=O)[nH]1)N1CCN(c2ccccc2)CC1,-1%
Cc1cc2c(c(=O)n1CCCN1CCOCC1)C(c1ccc(Cl)cc1)C(C#N)=C(N)O2 (stereo not drawn),3%
CCOc1ccc(C(=O)Nc2nnc(-c3ccc(Br)cc3)s2)cc1,0%
c1nc(NC2CCCCCCCCCCC2)c2[nH]cnc2n1,23%
COc1ccc(/C(O)=C2/C(=O)C(=O)N(Cc3cccnc3)C2c2ccc(Cl)c(Cl)c2)cc1F (stereo not drawn),-9%
OCCCc1nc2n(n1)C(c1ccco1)C=C(c1ccc(Cl)cc1)N2 (stereo not drawn),4%
COc1ccc(C(=O)c2cn(CC(=O)Nc3ccc4c(c3)OCCO4)c3cc4c(cc3c2=O)OCCO4)cc1,-3%
Cn1c(=O)c2c(nc(N3CCN(CCO)CC3)n2CCSc2nc3ccccc3o2)n(C)c1=O,7%
Cc1nc2ccc(NC(=O)c3ccc(S(=O)(=O)N4CCCCC4)cc3)cc2s1,-1%
CCOCCCn1c(SCC(=O)Nc2ccccc2CC)nc2c(oc3ccccc32)c1=O,-9%
O=C(CS(=O)(=O)c1cn(Cc2cccc(F)c2)c2ccccc12)Nc1ccc(F)cc1,0%
Cc1ccc(C)c2[nH]c(=O)c(CCNC(=O)Cc3cccs3)cc12,-6%
Cc1ccc(C2C=C(c3ccc(Cl)cc3)Nc3ncnn32)cc1 (stereo not drawn),6.9µg/mL*
c1ccc(CN2CCN(c3nc(Nc4ccccc4)c4nccnc4n3)CC2)cc1,5.4µg/mL*
CS(=O)(=O)c1ccc2c(c1)NC(=O)CO2,-4%
Cc1ccccc1NC(=O)CSc1nc(-c2cccs2)nc2c1c(=O)n(C)c(=O)n2C,-4%
NC(=O)CSc1nc2c(c(=O)n1-c1ccc(Br)cc1)SCC2,6%
COc1ccc(Cc2nnc(Nc3cccc(F)c3)[nH]c2=O)cc1,2%
N#Cc1ccc(C(=O)Nc2nnc(-c3ccc4c(c3)CCCC4)o2)cc1,1.7µg/mL*
Nc1nc(SCC(=O)NCc2ccc3c(c2)OCO3)[nH]c(=O)c1NC(=O)c1ccccc1,4%
Cc1cccc(-c2nnc(NC(=O)c3cc(Cl)cc(Cl)c3)s2)c1,61%
Cn1c(=O)n(C)c2cc(CO)ccc21,4%
Cn1c(=O)[nH]c(=O)c2c1nc(N1CCN(Cc3cccc(Cl)c3)CC1)n2Cc1ccccc1,0%
Cn1c(=O)n(CC(N)=O)c(=O)c2c1nc(Br)n2Cc1ccccc1,14%

# Some of the compounds tested. The share of hits here may be higher or lower than overall.
